Source: PubChem (several laboratories)
ugtP null kill: growth inhibition of ugtP-null S. aureus, primary screen, RN4220 ugtP deletion, OD600. actives 0.54% (n = 330,000). growth inhibition, % (no concentration beside the values). 16 h; some inactives read as strong as hits;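 active = z-score under -3 and OD600 up to 0.15 on both plates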;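 note: plate controls were untreated wells for no effect and antibiotic for full effect; wells of about 80 µL received 100 nL stock; the first replicate is given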
RN4220 kill: growth inhibition of S. aureus RN4220, primary screen, OD600. 16 h. inhibition, % (concentration not given with the values). actives 0.33% (n = 330,000);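 active = z-score of -3 or lower and OD600 up to 0.18 on both plates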;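 note: plate controls were untreated cells for no effect and reference antibiotic for full effect; stock transfer was 100 nL into about 80 µL; one replicate is shown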
PrP UTR inh: inhibition of PrP 5' UTR reporter expression. cell-based PrP 5' UTR mRNA reporter, plate reader. inhibition, % (no concentration beside the values). actives 0.35% (n = 340,000);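 active = every replicate at 50% or more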;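 note: 0 = median of the neutral control wells; tested in H4 reporter cells; numbers are from one replicate; inactives centre near -14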
Autofluor counter: compound fluorescence in toxin protease inhibitor counterscreen; compound autofluorescence counterscreen, microsphere flow cytometry; hits give high values; fluorescence intensity (test concentration not listed); actives 3.1% (n = 360,000);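 active = at least 3 SD above the mean of all compounds, about 16000 in these data; inconclusive = too few beads counted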;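 note: 100 nL of 1 mM stock went into each well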
Mtb hypoxia inh: PubChem AID 1159583. M. tuberculosis hypoxia-regulated fluorescent reporter, fluorescence. fluorescence inhibition, % (concentration not given with the values). actives 0.1% (n = 300,000);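 active = 35 to 45% if threefold the growth effect, above 45% if 1.5-fold the growth effect; inactive = the rest, general growth blockers included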;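 note: wells of about 50 µL received 100 nL stock; 0% = vehicle wells and 100% = reference inhibitor wells; whole bacteria with a GFP reporter of the hypoxia response; strong numbers were not always called active; many hits fall short of the cut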
BJeLR viability: MLPCN primary cell-based screen for lethality selective to Ras in HRASV12 cells | BJeLR (HRASV12) viability, CellTiter-Glo ATP luminescence, 48 h; reference of the scale not given here | AID 1554, 2009 | inhibition, % (concentration not given with the values) | actives 0.17% (n = 300,000);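 active = replicate mean above 50%; inconclusive = above 50% but judged a plate artefact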;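 note: 50 nL library stock added to about 25 µL; numbers are from one replicate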
Mtb hypoxia inh growth: second read-out of Mtb hypoxia inh, no call of its own (marks repeat the call); growth inhibition, %; measured here: M. tuberculosis growth (absorbance);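 0% = vehicle and 100% = reference antibiotic; read after six days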
* = called active by the depositor; ? = inconclusive; . = not tested or not shown. Not a hit list; about 3.9% have a hit in one of these screens.

Codes: A = ugtP null kill; B = RN4220 kill; C = PrP UTR inh; D = Autofluor counter; E = Mtb hypoxia inh; F = Mtb hypoxia inh growth; G = BJeLR viability
SMILES: CCOc1ccc(Cl)cc1S(=O)(=O)n1nnc2ccccc21
  A: 0 | B: -1.7 | C: -14 | D: 4754 | E: -3 | F: 6 | G: 6
SMILES: O=C(COc1ccc(Br)cc1)NNC(=O)Cc1ccc(S(=O)(=O)N2CCOCC2)s1
  A: 6 | B: 2.4 | C: 2 | D: 2747 | E: 3 | F: 2 | G: .
SMILES: O=C(Nc1ccc(CN2CCOCC2)cc1)c1cc2ccccn2n1
  A: -8 | B: -6.5 | C: 28 | D: 6109 | E: 6 | F: 10 | G: 6
SMILES: NC(=O)CC(NC(=O)Cc1ccc(Br)cc1)c1ccc(NCCOc2ccccc2)c([N+](=O)[O-])c1 (configuration not stated)
  A: -10 | B: 2.3 | C: -26 | D: 4184 | E: 9 | F: -1 | G: -11
SMILES: Cc1cc(SCCC(=O)O)nc2ccccc12
  A: -4 | B: 3.7 | C: -4 | D: 3045 | E: 7 | F: -2 | G: 4
SMILES: COc1ccc(CNC(=O)c2cccnc2Sc2ccc(Cl)cc2)cc1
  A: 3 | B: 3.9 | C: -34 | D: 11009 | E: -3 | F: 17 | G: -17
SMILES: O=C(C[n+]1cccc(Br)c1)c1ccccc1
  A: 0 | B: 5.0 | C: -5 | D: 4020 | E: 7 | F: 10 | G: -14
SMILES: Clc1cncc(Cl)c1NN=Cc1ccccc1
  A: 1 | B: 5.2 | C: . | D: . | E: -6 | F: 3 | G: .
SMILES: COCC(=O)N/N=C\c1cccc(OC)c1OC/C=C/c1ccccc1
  A: . | B: . | C: 10 | D: 5837 | E: . | F: . | G: 1
SMILES: CCCN1Cc2cc(OC)ccc2-c2ccccc2S1(=O)=O
  A: -1 | B: -0.4 | C: 2 | D: 3188 | E: -8 | F: -6 | G: .
SMILES: COc1cc(/C=C(\C#N)C(=O)Nc2ccccc2F)ccc1OCCN1CCOCC1
  A: 2 | B: -1.7 | C: -12 | D: 3918 | E: -7 | F: -14 | G: -11
SMILES: COC(=O)CNC(=O)CN1c2cccc3cccc(c23)S1(=O)=O
  A: 5 | B: 4.6 | C: -4 | D: 4440 | E: . | F: . | G: 4
SMILES: O=C(NN=Cc1ccc(OC(=O)c2cccs2)cc1)c1cccc(F)c1
  A: 1 | B: 2.8 | C: . | D: . | E: 9 | F: 7 | G: .
SMILES: O=C(NC(=S)Nc1cccc(O)c1)C1CCCCC1
  A: 45 | B: -0.2 | C: -36 | D: 2831 | E: 4 | F: 26 | G: .
SMILES: Cc1cccc(OCC(=O)NCC(C)(C)N2CCOCC2)c1
  A: -4 | B: 1.5 | C: -3 | D: ? | E: 3 | F: 8 | G: .
SMILES: CC(C)(C)NC(=O)C(c1ccsc1)N(CCc1ccccc1)C(=O)Cn1nnc2ccccc21 (configuration not stated)
  A: 1 | B: -1.3 | C: -22 | D: 4502 | E: 2 | F: -13 | G: -5
SMILES: Cc1ccc(C=NNC(=O)C2COc3ccccc3O2)s1 (configuration not stated)
  A: 4 | B: -2.5 | C: . | D: . | E: . | F: . | G: .
SMILES: Cc1ccc(C2=NOC(C)(c3nnc(-c4ccncc4)o3)C2)cc1 (configuration not stated)
  A: -3 | B: -1.9 | C: -6 | D: 3784 | E: 6 | F: 2 | G: 5
SMILES: c1ccc(-c2cn3nc(-c4ccccc4)cnc3n2)cc1
  A: 4 | B: 3.7 | C: 5 | D: 2265 | E: 6 | F: 4 | G: .
SMILES: O=[N+]([O-])c1ccc(NN=Cc2cccn2-c2ccccc2)nc1
  A: -27 | B: 9.0 | C: . | D: . | E: 5 | F: 2 | G: .
SMILES: O=C(COC(=O)c1cccs1)Nc1cccc(S(=O)(=O)N2CCCCC2)c1
  A: 3 | B: -1.1 | C: -8 | D: 3899 | E: 4 | F: 1 | G: .
SMILES: O=C(NN=Cc1ccoc1)c1cc(O)cc(O)c1
  A: -7 | B: 2.7 | C: . | D: . | E: 3 | F: 3 | G: .
SMILES: Cc1cccc(C(=O)N2CCCC(N3CCN(c4ccc(F)cc4)CC3)C2)n1 (configuration not stated)
  A: 3 | B: -0.4 | C: -15 | D: 5905 | E: -2 | F: 1 | G: 5
SMILES: COc1ccc(CN(C(=O)/C=C/c2ccco2)C2CCS(=O)(=O)C2)cc1OC (configuration not stated)
  A: 9 | B: 4.6 | C: -6 | D: 5758 | E: 0 | F: 1 | G: 2
SMILES: CCn1cc([N+](=O)[O-])c(C(=O)NCc2ccc3c(c2)OCO3)n1
  A: 6 | B: 1.2 | C: -8 | D: 3838 | E: 3 | F: 3 | G: -2
SMILES: COCCCNC(=O)c1ccc(-n2nc(C(F)(F)F)cc2-c2cccs2)cc1
  A: 13 | B: 2.3 | C: -12 | D: 3237 | E: 22 | F: 9 | G: -5
SMILES: Cc1ccc(C(=O)COC(=O)CCS(=O)(=O)c2ccccc2)cc1[N+](=O)[O-]
  A: 1 | B: 5.0 | C: . | D: . | E: 4 | F: 0 | G: .
SMILES: Cc1ccccc1C1C(C#N)=C(N)N(N(C)C)C2=C1C(=O)CC(C)(C)C2 (configuration not stated)
  A: 0 | B: 3.0 | C: -7 | D: 3267 | E: 13 | F: 6 | G: -1
SMILES: COc1ccc(C(=O)NC(CC(C)C)C(=O)O)cc1OC (configuration not stated)
  A: -9 | B: 2.0 | C: -25 | D: 20991* | E: 13 | F: 5 | G: -2
SMILES: COC(=O)CSc1nnc(-c2sc3ccccc3c2Cl)o1
  A: 5 | B: 17 | C: 2 | D: 2562 | E: . | F: . | G: 6
SMILES: O=C(Nc1ccccc1C(=O)NCCN1CCOCC1)c1ccc(Cl)cc1Cl
  A: -2 | B: 2.0 | C: -53 | D: 2094 | E: 8 | F: 5 | G: 3
SMILES: CNc1nc(Oc2ccccc2C(=O)OC)nc(SC)n1
  A: -1 | B: 2.1 | C: -14 | D: 21738* | E: 8 | F: -5 | G: 0
SMILES: Nc1nonc1-n1nnc(C(=O)NN=CC2CCCCC2)c1-c1ccccc1
  A: 0 | B: 1.3 | C: . | D: . | E: -3 | F: 11 | G: .
SMILES: CC(C)c1ccc(/C=C2\SC(=O)N(CC(=O)NC3C=CS(=O)(=O)C3)C2=O)cc1 (configuration not stated)
  A: 0 | B: 4.0 | C: -7 | D: 6109 | E: -3 | F: -3 | G: -7
SMILES: Clc1ccc(C=NN2CCCCCC2)c(Cl)c1
  A: 66 | B: 14 | C: -36 | D: 3040 | E: 10 | F: 8 | G: .
SMILES: C=CCn1c(N)c(C(=O)NCc2cccnc2)sc1=S
  A: 4 | B: 5.8 | C: -15 | D: 9404 | E: 5 | F: 1 | G: -1
SMILES: CC1CC(C)CN(C(=O)CN2C(=O)NC(c3ccccc3)(c3ccccc3)C2=O)C1 (configuration not stated)
  A: 8 | B: 4.0 | C: -9 | D: . | E: -4 | F: 2 | G: .
SMILES: Cc1cc(=O)c2c([nH]1)c(C)cc1[nH]c(C)c(C)c12
  A: -3 | B: -0.6 | C: -29 | D: 3766 | E: . | F: . | G: .
SMILES: Cn1c(=N)n(CC(O)c2ccccc2)c2ccccc21 (configuration not stated)
  A: 6 | B: 1.3 | C: -23 | D: 2813 | E: 5 | F: 3 | G: 9
SMILES: COc1cccc(CN(C)C(=O)c2cc(S(=O)(=O)NC3CCCCC3)ccc2C)c1
  A: 4 | B: 7.5 | C: -2 | D: 3236 | E: 7 | F: 8 | G: .

Whole records as entered above.
`CCn1cc([N+](=O)[O-])c(C(=O)NCc2ccc3c(c2)OCO3)n1` as listed: ugtP null kill: 6; RN4220 kill: 1.2; PrP UTR inh: -8; Autofluor counter: 3838; Mtb hypoxia inh: 3; Mtb hypoxia inh growth: 3; BJeLR viability: -2
`O=C(NN=Cc1ccc(OC(=O)c2cccs2)cc1)c1cccc(F)c1` as listed: ugtP null kill: 1; RN4220 kill: 2.8; PrP UTR inh: .; Autofluor counter: .; Mtb hypoxia inh: 9; Mtb hypoxia inh growth: 7; BJeLR viability: .
`O=C(NC(=S)Nc1cccc(O)c1)C1CCCCC1` as listed: ugtP null kill: 45; RN4220 kill: -0.2; PrP UTR inh: -36; Autofluor counter: 2831; Mtb hypoxia inh: 4; Mtb hypoxia inh growth: 26; BJeLR viability: .

Further records follow.
Codes: A = ugtP null kill; B = RN4220 kill; C = PrP UTR inh; D = Autofluor counter; E = Mtb hypoxia inh; F = Mtb hypoxia inh growth; G = BJeLR viability
SMILES: COc1cc(O)c(C(CC(=O)N2CCCC2)c2cc(OC)c(OC)c(OC)c2)c(OC)c1 (configuration not stated)
  A: -6 | B: -1.7 | C: -25 | D: 3440 | E: 10 | F: 10 | G: -6
SMILES: O=S(=O)(CCOc1ccccc1)c1nc2ccccc2[nH]1
  A: -5 | B: 3.8 | C: -36 | D: 9358 | E: 2 | F: 1 | G: -5
SMILES: CC1CCN(C(=O)c2[nH]cnc2C(=O)N[C@@H](Cc2ccccc2)C(=O)OC(C)(C)C)CC1
  A: . | B: . | C: -13 | D: 2933 | E: . | F: . | G: 11
SMILES: COc1cccc(NC(=O)CSc2nc3ccccc3c(=O)n2C)c1
  A: 4 | B: 3.7 | C: -8 | D: 3943 | E: 0 | F: 4 | G: 4
SMILES: C(=NN1CCOCC1)c1cccs1
  A: 9 | B: 1.9 | C: . | D: . | E: -10 | F: -11 | G: .
SMILES: O=C(COC(=O)c1ccc2ccccc2n1)Nc1ncc(C(F)(F)F)cc1Cl
  A: -13 | B: 6.6 | C: -1 | D: 22793* | E: 0 | F: 2 | G: -2
SMILES: CCC(C)N=C1SCC(C)(C=NO)S1 (configuration not stated)
  A: -2 | B: -1.5 | C: . | D: . | E: 3 | F: 6 | G: .
SMILES: COc1ccc(NC(C)=O)cc1NC(C)C(=O)Nc1ccc(S(=O)(=O)N2CCCCC2)cc1 (configuration not stated)
  A: -1 | B: -1.6 | C: -22 | D: 3908 | E: 2 | F: -8 | G: .
SMILES: CSc1ccc(/C=N/n2c(Cc3ccc(Br)cc3)n[nH]c2=S)cc1
  A: . | B: . | C: 18 | D: 3389 | E: . | F: . | G: -7
SMILES: CCNC(=O)CN1C(=O)NC(CCc2ccccc2)C1=O (configuration not stated)
  A: -12 | B: -4.5 | C: -9 | D: 3923 | E: . | F: . | G: -4
SMILES: COc1ccc(CCNC(=S)NC(=O)c2c(-c3ccccc3Cl)noc2C)cc1OC
  A: 20 | B: 4.1 | C: -57 | D: 6239 | E: 5 | F: -3 | G: 4
SMILES: COc1ccc(-n2nc([N+](=O)[O-])c(=NCCC3=CCCCC3)n2O)cc1
  A: 8 | B: 39 | C: -34 | D: 3726 | E: 15 | F: 13 | G: 6
SMILES: CCOc1ccc(/C=C\c2nc(O)c([N+](=O)[O-])c(=O)[nH]2)cc1OCC
  A: 4 | B: 1.5 | C: 6 | D: 4110 | E: -1 | F: 3 | G: 6
SMILES: O=C(CSCc1c(F)cccc1Cl)NCc1ccco1
  A: -8 | B: 0.9 | C: -28 | D: 8061 | E: -1 | F: -23 | G: -2
SMILES: Cn1c(SCC(=O)NC2CC2)nnc1-c1cccc(NC(=O)c2ccccc2F)c1
  A: -4 | B: 4.8 | C: -65 | D: 3673 | E: 5 | F: 9 | G: -9
SMILES: CCc1ccccc1NC(=O)CSC1=C(C#N)C(c2ccc3c(c2)OCO3)C2=C(CCCC2=O)N1 (configuration not stated)
  A: -7 | B: 0.3 | C: -4 | D: 12143 | E: -2 | F: -5 | G: 3
SMILES: Cc1cc(C)c2cc(C#N)c(N3CCCC3)nc2c1
  A: 6 | B: 2.5 | C: 3 | D: 4823 | E: 1 | F: 7 | G: .
SMILES: CCOC(=O)C1=C(C)N(C)C(=O)NC1c1c(C)nn(-c2ccc(C)cc2)c1Cl (configuration not stated)
  A: -8 | B: 9.3 | C: -12 | D: 2937 | E: -1 | F: 1 | G: 1
SMILES: O=C(CCC(=O)N1CCOc2ccccc21)NCCCc1ccccc1
  A: -7 | B: -2.5 | C: -35 | D: 5969 | E: -1 | F: 4 | G: 0
SMILES: CC(=O)N1c2ccc(S(=O)(=O)NCC3CCC(C(=O)Nc4cc(C)ccn4)CC3)cc2CC1C (configuration not stated)
  A: 4 | B: -0.5 | C: -13 | D: 5401 | E: 9 | F: -1 | G: -10
